Bioassay records from PubChem.
HPGD block = HPGD (human) dehydrogenase inhibition; AID 894; actives 4.3% (n = 150,000); Potency, µM, without a hit: top-dose activity change, negative = inhibition, hits mostly inhibitors; purified HPGD, NADH fluorescence kinetic, PGE2 substrate; active = well fitted inhibition curve with a large enough effect (not every such curve was filed as active); inconclusive = small, poorly fitted or top-dose-only effect, or another doubt; inactive = no such curve, though single readings can be large or run the other way;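 further: top concentration of the series not given in the record; plate controls included wells without enzyme; inactives centre near -10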
Target sequence (P15428 whole entry, looked up): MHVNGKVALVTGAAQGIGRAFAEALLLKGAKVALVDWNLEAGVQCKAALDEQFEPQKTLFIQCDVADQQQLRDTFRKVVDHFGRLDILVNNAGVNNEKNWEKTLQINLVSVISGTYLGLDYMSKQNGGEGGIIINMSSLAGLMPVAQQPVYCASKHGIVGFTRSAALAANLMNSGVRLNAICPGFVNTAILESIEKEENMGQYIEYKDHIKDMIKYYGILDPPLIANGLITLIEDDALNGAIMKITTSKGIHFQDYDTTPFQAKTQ
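NADH formation kinetics: reaction with 30 uM PGE2 and 1 mM NAD+ (final), 20 nM enzyme, Tris-HCl pH 8 with Tween 20, after 15 min compound preincubation at room temperature. Fluorescence change, last versus first of five reads.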
Active calls of the source: *; ? = inconclusive; & = joins results of further samples. On the % scale 0 is the no-effect control and ±100 the full control effect; potency means the concentration at half of the fitted maximal effect.

SMILES	HPGD block
Cn1c(Sc2ccc(-c3cccnc3)n2C)ccc1-c1cccnc1	-5%
Cc1cccc(NC(=O)c2oc(=O)c3ccccc3c2-c2ccccc2)c1C	?
CCOC(=O)c1c(C)oc2ccc(O)cc12	-14%
CC(=O)c1cccc(Nc2nc(=O)c3cccnc3s2)c1	-13%
C=CCN=c1scc(-c2ccccc2)n1/N=C/c1ccccn1	-6%
COc1cc2c(cc1NC(=O)C(C)N1CCN(S(=O)(=O)c3ccc(C)c(C)c3)CC1)oc1ccccc12 (configuration not stated)	?
COc1ccc2c(c1OC)C(=O)N1N=C(c3ccc(Cl)cc3)CC21 (configuration not stated)	-26%
O=C(COc1ccc(C(=O)NCCc2ccccc2)cc1)Nc1ccccc1	-8%
COc1ccc(NC(=O)/C=C/c2ccccc2)c([N+](=O)[O-])c1	-1%
CCn1c(CNC(=O)c2cccc(C)c2)nnc1SCC(=O)Nc1cccc(OC)c1	-3%
CC(C)c1ccccc1S(=O)c1ccccc1C(C)(C)O (configuration not stated)	-3%
NC(=O)C1CCN(CCC(=O)Nc2cccc(Cl)c2)CC1	-11%
COC(=O)c1cccc(C23CC4(C2)[C@H](CN(CC2CCCCC2)[C@@H]4c2ccccc2)C3c2ccccc2)c1 (some centres not stated)	-9%
CCCCC(=O)Nc1ccc2c3c(cccc13)C(=O)N2CC	-15%
Cc1ccc(-n2c(-c3ccco3)nc3c(cnn3-c3ccc(C)cc3)c2=O)cc1	-17%
Cc1cc(C)c2cc(CN(CCO)C(c3nnnn3Cc3ccc(F)cc3)C(C)C)c(=O)[nH]c2c1 (configuration not stated)	1%
Cc1onc(-c2ccccc2)c1C(=O)NNC(=S)NC(=O)/C=C/c1ccccc1	-26%
O=C(c1ccco1)N1CCN(C(=O)c2cc3sccc3n2Cc2ccccc2)CC1	-8%
COc1ccc2nc(NC(=O)C3CCN(S(=O)(=O)c4cccc5nsnc45)CC3)sc2c1	-8%
CCN1CCN(C(=O)/C=C/c2ccc(C)o2)CC1	-13%

Exported with the structure last: entries from further up.
HPGD block | molecule
-1% | COc1ccc(NC(=O)/C=C/c2ccccc2)c([N+](=O)[O-])c1
-3% | CCn1c(CNC(=O)c2cccc(C)c2)nnc1SCC(=O)Nc1cccc(OC)c1
-3% | CC(C)c1ccccc1S(=O)c1ccccc1C(C)(C)O (configuration not stated)
-11% | NC(=O)C1CCN(CCC(=O)Nc2cccc(Cl)c2)CC1

A second format for some results above:
Structure,HPGD block
Cc1cc(C)c2cc(CN(CCO)C(c3nnnn3Cc3ccc(F)cc3)C(C)C)c(=O)[nH]c2c1 (configuration not stated),1%
COC(=O)c1cccc(C23CC4(C2)[C@H](CN(CC2CCCCC2)[C@@H]4c2ccccc2)C3c2ccccc2)c1 (some centres not stated),-9%
CC(C)c1ccccc1S(=O)c1ccccc1C(C)(C)O (configuration not stated),-3%

The list goes on:
SMILES	HPGD block
N#CC1=C(N)S[C@H](C(=O)C23CC4CC(CC(C4)C2)C3)[C@H]1c1ccncc1	1%
O=C(N1CCOCC1)N1CCN(c2ccccc2F)CC1	-13%
Cc1ccc(C(=O)/C=C/Nc2ccc(S(=O)(=O)Nc3onc(C)c3C)cc2)cc1	-26%
CSCCc1nc(SCC(=O)Nc2nnc(C)s2)[nH]c1C	4%
CC1CCCN(C(=O)Cc2ccc(F)cc2)C1 (configuration not stated)	-25%
CNc1sc(C(=O)c2ccccc2F)c(N)c1-c1nc2ccccc2s1	-28%
CC(C)OC(=O)/C(=C/c1cccnc1)NC(=O)c1ccccc1	4%
CC(O)CN1C(=O)C(CC(=O)Nc2ccc(Cl)cc2)SC1=Nc1ccccc1 (configuration not stated)	-14%
Cc1cccc(OCCSc2nnc(-c3ccoc3C)n2C)c1	-2%
O=C(CCn1cccc1)Nc1ccccc1F	-10%
COC(=O)Nc1sc(C(=O)N(C)C)c(C)c1C(=O)OC	-16%
Cc1cccc(C)c1NC(=O)CSc1nnc(CCCCCNC(=O)OC(C)(C)C)o1	-7%
C=CCN1c2ccccc2[C@]23C[C@@H](C(=O)OC)N(S(=O)(=O)CCCC)C2=NC(C(=O)OC)=C(C(=O)OC)[C@H]13	1%
CCOc1cc([C@H]2[C@@H]3CCCC[C@]3(O)CCN2CC(=O)NCc2ccco2)ccc1O	-16%
Cc1ccccc1-c1ccc(Nc2ccc(C(=O)N3CCOCC3)cc2)nn1	22µM*
COc1ccccc1C(=O)Nc1cc2c(ccc3ccccc32)oc1=O	?
CC(C)CCn1cnc2c1c(=O)n(C)c(=O)n2C	-11%
COc1ccccc1N1CCN(C(=O)c2cc(-c3ccc(C)cc3)on2)CC1	-7%
Cc1ccc(C)c(S(=O)(=O)NCCCn2ccnc2)c1	-9%
CC(=O)c1cccc(NC(=O)Nc2cnn(Cc3ccc(Cl)cc3Cl)c2)c1	-17%
NCCCCN=C(N)N	-7%&-4%&-14%
CSc1nnc(-c2nnc(SC)n2-c2ccccc2)n1-c1ccccc1	-5%
c1ccc2c3c([nH]c2c1)[C@@H]1[C@H]2CC[C@H]([C@H]4CCCN[C@H]42)N1CC3	?
COc1ccc(CCn2c(=O)[nH]c3cc(C(=O)NCCc4ccccc4)ccc3c2=O)cc1OC	0%
CCOC(=O)c1oc2ccc(CNC3CCCCC3)c(Cl)c2c1C	-5%
COc1ccc(CNC(=O)c2cc(-n3cnnc3)ccc2Cl)cc1	-3%
CC(C)(C)SCCNC(=O)c1ccc(NS(C)(=O)=O)cc1	-10%
COc1cc(SC)ccc1C(=O)NCc1ccccc1	25µM*
Cc1ccc(/C=C/C2=NN(Cc3ccccc3)C(=O)CC2)cc1	?
COC(=O)c1ccccc1NC(=O)CS(=O)(=O)Cc1nc(-c2ccc(C)cc2)oc1C	-23%
COc1ccc2nc3oc(C(=O)N4CCN(c5cccc(C(F)(F)F)c5)CC4)cc3cc2c1	-25%
CCc1ccc(OCC(=O)N/N=C/c2ccc(OS(=O)(=O)c3ccc(C)cc3)c(OC)c2)cc1	-11%
CCOC(=O)c1ccc2c(c1)n(CC)c(/C=C/Nc1ccccc1)[n+]2CC	-8%
C=CCNc1nc(NCCN2CCOCC2)nc(OC)n1	-3%
O=C(c1ccc(F)cc1)C1CCN(CCCCc2ccccc2)CC1	-2%
COc1cc(NS(=O)(=O)c2ccc(Nc3nc(-c4ccccc4)cs3)cc2)nc(OC)n1	-13%
CCN(CC)c1ccc(C(=O)N/N=C(\C)c2ccc(O)cc2)cc1	-22%
O=C(CC1CCCC1)OCn1nnc2ccccc2c1=O	?
Cc1cc(NC(=O)CSc2nnc(C)c(=O)[nH]2)no1	-1%
CCO/C=C1\C(=O)N(c2ccccc2)C(=O)c2ccccc21	?
O=c1[nH]c(N2CCOCC2)nc2ncn(Cc3ccccc3)c12	-9%
O=C(N/N=C/c1ccc(O)c(O)c1O)/C(=C/c1ccc([N+](=O)[O-])cc1)NC(=O)c1ccccc1	25µM*
Cn1c(=O)cnc2cnc(Nc3ccccc3)nc21	-13%
COc1cccc(CNC(=O)C2CCN(S(=O)(=O)c3c(C)nn(C)c3C)CC2)c1	-3%
COc1ccc(CCNC(=O)Cc2cc(=O)[nH]c(=O)[nH]2)cc1OC	-6%
Cc1ccc(CNC(=O)CSc2nc3ccccc3c(=O)n2CCCO)cc1	-7%
CN1CCC[C@@H]1c1cccnc1.O=C(O)c1ccccc1O.O=C([OH2+])c1ccccc1O.O=C([OH2+])c1ccccc1O.O=C([OH2+])c1ccccc1O.[Mn]	?
Cc1ccc(/C=C/C(=O)NCc2cccs2)cc1	14µM*
CCSc1nnc(NC(=O)C2CCN(S(=O)(=O)c3cc(C(F)(F)F)ccc3Cl)CC2)s1	-6%
O=C(COc1ccc2ccccc2c1)NNC(=O)[C@@H]1CCCC[C@@H]1C(=O)O	3%
O=C(c1nc2nc(-c3ccccc3)cc(C(F)(F)F)n2n1)N1CCOCC1	-27%
CC(=O)[C@]1(O)Cc2c(O)c3c(c(O)c2[C@@H](O[C@H]2C[C@H](N)[C@H](O)[C@H](C)O2)C1)C(=O)c1c(O)cccc1C3=O	-3%
COc1cccc(NC(=O)Nc2nnc(-c3ccccc3SCc3ccccc3)s2)c1	-13%
O=C(C1CCCN(S(=O)(=O)c2cccc3nsnc23)C1)N1CCc2ccccc2C1 (configuration not stated)	-15%
CC1=C(CCC(=O)O)c2cc3nc(cc4[nH]c(cc5[nH]c(cc1n2)c(C)c5C(C)O)c(C)c4C(C)O)C(C)=C3CCC(=O)O (configuration not stated)	-10%
COC(=O)c1ccc(NC(=O)CNCc2ccncc2)cc1	0%
O=C(NCC1CCCO1)[C@@H]1CSC2c3ccccc3C(=O)N21 (some centres not stated)	-12%
COc1cccc(C(=O)Nc2cccc(NC(C)=O)c2)c1	-5%
OC[C@H]1O[C@@H](n2cnc3cncnc32)[C@H](O)[C@@H]1O	-12%&-4%
CC(C)CSc1ncnc2c1oc1nc3c(cc12)COC(C)(C)C3	-18%

Continuation:
SMILES	HPGD block
COCCN1CN(S(=O)(=O)c2ccccc2)c2nc3ccccc3nc21	?
Cc1ccc(-n2nnnc2-c2cnn(-c3cccc(F)c3)c2C(F)(F)F)cc1	-3%
CCCCCN(C(=O)NC(=O)NC(C)CC)S(C)(=O)=O (configuration not stated)	-4%
Cc1cc2c(c(=O)n1CCCn1ccnc1)C(c1ccco1)C(C#N)=C(N)O2 (configuration not stated)	-7%
Cc1cccc(N(C)S(=O)(=O)c2cccc3nsnc23)c1	-2%
Cc1ccc(-c2nc3ccccc3o2)cc1NC(=O)Cc1cccs1	?
O=C(Nc1ccccc1)/C(=C/c1ccc([N+](=O)[O-])cc1)NC(=O)c1ccccc1	-15%
O=C(NCC1CCCO1)c1cc(-c2ccccc2)on1 (configuration not stated)	?
Cc1ccc(-c2nc3cc(C)ccc3o2)cc1	?
CCCc1nc2cc(CC(=O)OC)ccc2o1	-11%
CC1CCC/C(=N/Nc2ccc([N+](=O)[O-])cc2[N+](=O)[O-])C1 (configuration not stated)	-16%
COc1ccc(OC)c(C2C(C#N)=C(N)Oc3c2c(C)nn3-c2cccc(Cl)c2)c1 (configuration not stated)	-25%
O=C(NC(=S)N1CCOCC1)C12CC3CCC(CC(C3)C1)C2	3%
O=C(COc1ccc(S(=O)(=O)N2CCCCC2)cc1)NCc1ccncc1	-14%
C#CCOCCOCCOCCNc1nc(N2CCN(C(=O)Cn3cc(CC(C)O)nn3)CC2)nc(N2CCN(C(=O)Cn3cc(CC(C)O)nn3)CC2)n1 (configuration not stated)	-10%
Cc1nn(Cc2ccc(Cl)cc2)c(C)c1NC(=O)CSc1n[nH]c(C)c1[N+](=O)[O-]	-3%
O=C(CN1C(=O)C2(OCCO2)c2ccccc21)c1ccc(Cl)cc1	-4%
Cc1cccc(CSCCNC(=O)CSCc2ccc([N+](=O)[O-])cc2)c1	-17%
COc1ccc(C(O)C(CN2CCOCC2)c2ccccc2)cc1 (configuration not stated)	-5%
COc1cccc(N=Nc2c(N)[nH][nH]c2=O)c1	-25%

Some of these compounds in order of the HPGD block value, smallest number first.
| Molecule | HPGD block |
| --- | --- |
| Cc1ccc(/C=C/C(=O)NCc2cccs2)cc1 | 14µM* |
| Cc1ccccc1-c1ccc(Nc2ccc(C(=O)N3CCOCC3)cc2)nn1 | 22µM* |
| O=C(N/N=C/c1ccc(O)c(O)c1O)/C(=C/c1ccc([N+](=O)[O-])cc1)NC(=O)c1ccccc1 | 25µM* |

Other records.
SMILES	HPGD block
CNc1ccc(/C=C(\CCC(=O)O)c2nc3ccccc3s2)cc1[N+](=O)[O-]	-15%
O=C(NC1CCCC1)C1CC1c1ccccc1 (configuration not stated)	?
CCc1ccccc1NC(=O)CSc1nnc([C@@H](N)Cc2ccccc2)o1	-13%
OC(COc1ccc(Cl)cc1)CN1C2=NCCCN2c2ccccc21 (configuration not stated)	-1%
O=C1Nc2ccccc2C(O)(C(=O)NCc2ccco2)N1c1ccccc1 (configuration not stated)	0%
CC(=O)C1C(c2cccc([N+](=O)[O-])c2)C2C(C)=NN=C2CC1(C)O (configuration not stated)	-4%
Cc1ccc(NC(=O)C(C)N2C(=O)C3C4CC(C(Br)C4Br)C3C2=O)cc1 (configuration not stated)	-5%
COc1cccc(C2SCC(=O)N2c2ccc(Br)cc2)c1OC (configuration not stated)	-5%
O=C(NNC(=O)c1ccccc1Br)c1ccc(Cl)c(Cl)c1	-18%
O=C(Cc1coc(-c2ccc(F)cc2)n1)N1CCOCC1	-6%
Cc1csc(NC(=O)CSc2nc(C)cs2)n1	-15%
O=c1cc(-c2ccc(F)cc2F)[nH]c2ccccc12	-7%&-13%
O=C(NC(=S)Nc1nc2c(s1)CSc1ccccc1-2)c1ccccc1	20µM*
Cc1ccc(S(=O)(=O)NC(=O)NN2CC3CCCC3C2)cc1 (configuration not stated)	-7%&-3%
COc1ccccc1NC(=O)NS(=O)(=O)c1ccc(C)cc1	4%
O=C(CC(NC(=O)c1ccccc1Cl)c1ccccc1)NCCc1ccc(Cl)cc1 (configuration not stated)	-3%
CCOc1ccc(C(=O)N2CCN(Cc3ccccc3)CC2)cc1	-18%
O=C1CCC(=O)N1c1cccc(OS(=O)(=O)c2ccccc2)c1	-6%
O=C(Cn1nnc2ccccc21)NCc1ccccc1	-11%
CC1(C)CC(=O)c2c(nn(-c3ccccc3)c2-c2ccncc2)C1	-11%

Overlap with the part before: 3 entries, followed by the next part.
SMILES	HPGD block
O=C1CCC(=O)N1c1cccc(OS(=O)(=O)c2ccccc2)c1	-6%
O=C(Cn1nnc2ccccc21)NCc1ccccc1	-11%
CC1(C)CC(=O)c2c(nn(-c3ccccc3)c2-c2ccncc2)C1	-11%
CCOC(=O)c1nn(-c2ccc(C)cc2)cc1O	-25%
Cc1cccc(N2CCCC2=Nc2ccc(Br)cc2C#N)c1	7%
Cc1cccc(OCCNC(=O)c2cccc(Oc3ccc(C(F)(F)F)cc3[N+](=O)[O-])c2)c1	-13%
CCOC(=O)C1CCCN(C(=O)c2cc3c(=O)n(C)c4ccccc4c3n2C)C1 (configuration not stated)	-12%

An excerpt; count on the stated rates, not on these rows.
